Assay outcomes: PubChem BioAssay, National Center for Advancing Translational Sciences (NCATS)
VACV mCherry inh: vaccinia inhibition (mCherry reporter). Vaccinia virus mCherry reporter infection, fluorescence; about a quarter of the inactives have no number. Potency, µM (titrated, usually from 36.5 µM), for the others: at the top dose activity change, negative = inhibition, most hits filed as inhibitors. 310,000 tested, 0.63% active. AID 720579; active = well fitted inhibition curve with a large enough effect; inconclusive = small, poorly fitted or top-dose-only effect; inactive = no such curve, though single readings can be large or run the other way; tested in A549 cells; further: nearly all actives have a fitted effect of over 35% in size; inactives centre near -10
Vaccinia Venus: inhibitors of vaccinia virus (Venus reporter); 330,000 tested, 0.46% active; Vaccinia virus Venus reporter expression, fluorescence; AID 720580; Potency, µM (doses to about 36.5 µM), for inactives: at the highest dose activity change, negative = inhibition, most hits filed as inhibitors; active means well fitted inhibition curve with a large enough effect; inconclusive means small, poorly fitted or top-dose-only effect; inactive means no such curve, though single readings can be large or run the other way; tested in A549 cells; further: nearly all actives have a fitted effect of over 30% in size; inactives centre near -10
* marks the source's active call; other numbers are inactive results; i = inactive; ? = inconclusive; / = no result given. On the % scale 0 is the no-effect control and ±100 the full control effect; potency means the concentration at half of the fitted maximal effect.

SMILES	VACV mCherry inh	Vaccinia Venus
Cc1ccc(/C=N/NC(=O)c2ccc(Cn3cc([N+](=O)[O-])cn3)o2)cc1	-11%	-8%
CCN1CCN(C(=O)C(=O)c2cn(CC(=O)N3CCCCCC3)c3ccccc23)CC1	-12%	-9%
COc1ccc(OC)c(Nc2nc(N(C)c3ccccc3)nc(N)c2[N+](=O)[O-])c1	?	-23%
O=C(N[C@H](CO)c1ccccc1)[C@H]1O[C@@H](n2ccc(=O)[nH]c2=O)[C@H](O)[C@@H]1O	-16%	1%
OCC[C@@H]1C[C@@H](O)[C@H](O)[C@]2(CCCO2)O1	i	-11%
CCOC(=O)c1sc2ccc(S(=O)(=O)N3CC(C)CC(C)C3)cc2c1N (stereo not drawn)	-14%	-9%
COc1ccc(-c2cc(C(F)(F)F)nc(NCc3ccc(Cl)cc3)n2)cc1	-16%	-1%
CC[n+]1ccc2cc(OC)c(OC)cc2c1Cc1ccc(OC)c(OC)c1	i	-5%
O=C(COC(=O)c1cccnc1)NC1CCCc2ccccc21 (stereo not drawn)	i	-9%
CCC(CC)c1nnc(NC(=O)CCS(=O)(=O)Cc2ccccc2)s1	?	?
Cn1c(N2CCOCC2)c(/C=N/OC(=O)c2cccnc2Cl)c2ccccc21	-16%	-4%
Cc1cccc(NC(=O)C(C)Sc2ncnc3sccc23)c1 (stereo not drawn)	-19%	-29%
CCn1cc(CNC(=O)c2cccc([N+](=O)[O-])c2)cn1	-14%	-4%
Nc1cc2c(cc1Br)-c1c(C(=O)O)cccc1C2O (stereo not drawn)	i	-2%
O=c1c(C=Nc2cccnc2Cl)c(O)n(CCCCl)c(=O)n1C1CCCCC1	i	19%
Cc1nc(Cl)c(C(=O)NC(C)(C)C)c(C)c1Cl	-10%	-3%
CCCCn1cnc2c(SCc3ccc([N+](=O)[O-])cc3)nc(N)nc21	4µM*	?
C=CCSc1nnc(NC(=O)CSCc2c(C)noc2C)s1	i	-17%
Cc1ccc(OCC(=O)N2CCN(Cc3ccc4c(c3)OCO4)CC2)cc1C	i	-15%
O=C(O)c1cc(N2C(=O)C3CCCCC3C2=O)ccc1NCc1cccnc1 (stereo not drawn)	i	-15%
CN1CCCN(C(=O)c2cc(-c3cccc4ccccc34)nc3ccccc23)CC1	-14%	1%
O=C(CCn1c(=O)oc2ccccc21)NCCCN1CCCC1=O	-15%	10%
Cc1nc2ccc(C(=O)OCc3nnc(-c4ccccc4)o3)cc2nc1C	i	-5%
O=C(COC(=O)COc1ccc(Cl)cc1)NCc1ccc2c(c1)OCO2	i	1%
CCOc1ccc(Cc2noc3c2C(=O)CCC3)cc1OCC	1%	-6%
CC(c1ccccc1)n1cc(C(=O)NCc2ccncc2)nn1 (stereo not drawn)	i	-1%
O=C1c2ccccc2C(=O)N1CCOc1ccccc1	/	-16%
COc1ccc(CCC(=O)OC(C)C(=O)c2ccc(C)cc2)cc1 (stereo not drawn)	i	-9%
O=C(c1cccc(Br)c1)N1CCN(C(=O)c2cccc(Br)c2)CC1	-13%	-12%
Nc1nonc1-c1noc(-c2ccccc2)n1	-7%	-12%
COc1ccc(CNC(=O)C2CC(c3cccc([N+](=O)[O-])c3)=NO2)cc1 (stereo not drawn)	-26%	1%
OC[C@H]1O[C@@H](c2nc(-c3ccc4c(c3)CCO4)no2)[C@H](O)[C@@H](O)[C@H]1O	0%	-11%
CCCCNC1c2ccccc2C(=O)N1Cc1ccccc1 (stereo not drawn)	-15%	-7%
NCCC(=O)O	i	-9%
O=C(Nc1ccc(S(=O)(=O)Nc2ncccn2)cc1)c1ccc(Br)cc1	i	-4%
O=C(c1cc(-c2ccc(F)cc2)no1)N1CCN(Cc2ccc3c(c2)OCO3)CC1	-9%	-3%
Cc1nonc1-c1nc(-c2nonc2N)n[nH]1	i	-17%
COc1cc(C(=O)c2ccccc2)c(OC)cc1C(=O)Nc1ccc(O)cc1	-7%	-16%
Cc1ccc2nc(CSc3nnc(-c4ccncc4)n3C)cc(=O)n2c1	2%	2%
S=c1[nH]c2cc(Br)cnc2[nH]1	-6%	-19%
Cc1ccc(-n2c(=O)c3ccc(C(=O)NCc4ccccc4Cl)cc3n(Cc3ccccc3F)c2=O)cc1	7%	-7%
COc1cc2c(cc1OC)[C@@H]1C(=O)c3ccc4oc(C(C)C)cc4c3OC1CO2 (stereo partly drawn)	-23%	?
CCOc1ccc(N(CC(=O)NCC2CCCO2)S(=O)(=O)c2ccc(C)cc2)cc1 (stereo not drawn)	i	-12%
COc1ccc(-c2c(-c3ccsc3)oc(=O)c3cc(OC)c(OC)cc23)cn1	-9%	-9%
COc1cccc(N2CCN(C(=O)c3cc4c(=O)n(Cc5ccco5)ccc4nc3C)CC2)c1	-4%	0%
CC[C@]12c3[nH]c4cc(CCC(=O)N(C)C)ccc4c3CCN1C(=O)[C@@H](CC(=O)NCCCn1ccnc1)C[C@@H]2C(=O)N1CCN(C(=O)C2CC2)CC1	-10%	-15%
Cc1nc2c(C(=O)NC(C)c3ccccc3)cnn2c(C)c1Cc1ccccc1 (stereo not drawn)	i	?
CCOC(=O)C1CCN(C(=O)c2cc(S(=O)(=O)N3CCCCC3)ccc2C)CC1	-13%	-1%
CN(C)CCCN(C(=O)c1ccc(N2C(=O)CCC2=O)cc1)c1nc2c(F)cccc2s1	i	-6%
COc1ccc(CCNC(=O)CCCCn2c(=O)c3ccccc3n(Cc3ccccc3C)c2=O)cc1OC	-23%	-13%
CCN1CCCC1CNC(=O)CCc1nnc(CCC2CCCCC2)o1 (stereo not drawn)	-11%	-10%
O=C(c1[nH]c(C(F)(F)F)nc1-c1ccccc1)N1CCN(c2cccc(C(F)(F)F)n2)CC1	-21%	-24%
NC(Cc1cnc[nH]1)C(=O)Nc1ccc2ccccc2c1 (stereo not drawn)	17%	8%
CCN1CCN(C(=O)/C=C/c2ccc3c(c2)OCO3)CC1	-8%	-4%
Cc1ccc(C(=O)NNC(=O)CSc2nc(N)cc(N)n2)cc1	-21%	-17%
Brc1cccc(-c2n[nH]c(-c3ccccc3)n2)c1	?	?
CCOc1ccc(NC(=O)c2cc3sc(Cl)cc3n2CC)cc1	-28%	?
CN(C)CC#CCOC(c1ccccc1)c1ccccc1	i	-9%
CN(C(=S)Nc1ccc(Oc2ccccc2)cc1)C1CCCCC1	-12%	-19%
Cc1ccc(SCC(=O)NC2CCS(=O)(=O)C2)cc1 (stereo not drawn)	i	-2%
Continuation.
SMILES	VACV mCherry inh	Vaccinia Venus
COC(=O)CSC1=C(C#N)C(c2ccc(Cl)cc2)C(C(=O)OC)C(=O)N1 (stereo not drawn)	i	-22%
C=CCN(C(=O)Nc1ccc2oc(C)nc2c1)c1ccccc1	-10%	-12%
Cc1ccc2c(=O)n3c(nc2c1)C(Cc1ccccc1)NC(=O)c1cccnc1-3 (stereo not drawn)	-13%	-9%
COc1ccc(N2CCN(Cc3cc(=O)oc4ccc(C)cc34)CC2)cc1	-12%	-8%
Cc1ccc(S(=O)(=O)c2nc(-c3ccccc3Cl)oc2N2CCN(C)CC2)cc1	-23%	-21%
CCC1CC(C(=O)Nc2ccccc2)C(=O)O1 (stereo not drawn)	0%	8%
CCOc1ccc(N2CC(C(=O)Nc3ccccc3C(=O)N3CCOCC3)CC2=O)cc1 (stereo not drawn)	-2%	-7%
O=C(NCC1CCCO1)C1CCN(C2CCN(C(=O)C3CCCCC3)CC2)CC1 (stereo not drawn)	-5%	-1%
O=C(CSc1nc2ccccc2o1)NC1CCCC1	-7%	0%
COc1cc(C(O)CO)ccc1O (stereo not drawn)	-12%	-14%
Cn1c(=O)c2c(nc(SCc3cccnc3)n2Cc2ccc(F)cc2)n(C)c1=O	i	-13%
CCn1nc(C)c(Br)c1-c1nc(CS(=O)(=O)c2ccc(F)cc2)no1	i	-7%
COc1ccc(-c2nc3cc(NC(=O)COc4ccccc4C)ccc3o2)cc1	1%	-7%
Cc1cccc(OCCSc2nc3ccc(NC(=O)COc4ccccc4F)cc3s2)c1	-28%	-19%
O=C(OCC(=O)N1CCc2ccccc21)c1c2c(nc3ccccc13)CCCCC2	-4%	-7%
O=C(c1cccc(Cl)c1)N1CCC(=O)N(C(COCc2cccc(Cl)c2)Cc2ccccc2)CC1 (stereo not drawn)	0%	-28%
Cc1ccc(S(=O)(=O)NCC(C)n2cncn2)cc1 (stereo not drawn)	-15%	-6%
Cn1c(N)c(S(=O)(=O)c2ccc(Br)cc2)c2nc3ccccc3nc21	-5%	?
COc1ccc(C(=O)NC(=S)Nc2ccc(N3CCCC3)cc2)cc1OC	-18%	-10%
C[C@@H]1CCCCCCCCC(=O)OCCN1C(=O)OC(C)(C)C	i	-6%
COc1ccc(CC(=O)N(C)C2CCCCC2)cc1S(=O)(=O)N1CCOCC1	i	-16%
CCOC(=O)N1CCN(C(=O)CSc2ccc3nnc(-c4ccncc4)n3n2)CC1	7%	2%
CC(C)(C)NC(=O)c1ccc2c3c(cccc13)CC2	-16%	-3%
O=C(Nc1ccc(S(=O)(=O)NCC2CCCO2)cc1)c1ccccc1 (stereo not drawn)	-13%	-18%
CCCC(=O)Nc1ccc2nc(SCc3ccc(C)cc3)sc2c1	i	-14%
COc1ccc(CNC(=O)c2nn(-c3ccccc3C)nc2CO)cc1	11%	3%
CC(=O)N1Cc2cc([N+](=O)[O-])ccc2Oc2ccccc21	-5%	-1%
CC(C)[C@H](NC(=O)c1ccccc1)C(=O)OCC(=O)Nc1ncc(Cl)cc1Cl	i	-1%
COc1ccc(N(CC(=O)NCc2ccco2)S(=O)(=O)c2ccc(C)cc2)cc1OC	-14%	-13%
COc1ccc(CCCc2nnc(SCC(=O)Nc3cccc(F)c3C)o2)cc1	-1%	-9%
O=C(Nc1cccc2ncccc12)c1ccc(Br)c([N+](=O)[O-])c1	-1%	5%
CCCCC1(CO)C(=O)N(c2ccccc2)N(c2ccccc2)C1=O	i	-10%
CCN(c1ccccc1)S(=O)(=O)c1cc2c(cc1C)n(C)c(=O)c(=O)n2C	-6%	-1%
CC1(Cc2ccccc2C#N)C(=O)Nc2ccc(-c3ccccc3)cc21 (stereo not drawn)	24%	-20%
CCOC(=O)N1CCN(C(=O)CSc2nnc(Cc3ccccc3)o2)CC1	i	-3%
COc1ccc(NC(=O)/C(C#N)=C/c2ccc(C)o2)cc1	5%	4%
N=c1c2c3c(sc2ncn1Cc1ccco1)CCCCC3	-8%	-15%
Cc1cccc(NC(=O)Cn2nnc(C(=O)NCc3cccs3)c2N)c1	-2%	0%
Cc1c(C(=O)NCc2ccc(Cl)c(Cl)c2)sc(=O)n1Cc1ccccc1F	5%	1%
CC(=O)NS(=O)(=O)c1ccc(NC(=O)/C=C/c2ccccc2Cl)cc1	-14%	-27%
O=C(CSc1ncnc2c1cnn2CCc1ccccc1)Nc1cccc(C(F)(F)F)c1	/	-24%
O=C(NC1CC(=O)N(c2ccc(F)cc2)C1)c1cc2ccccc2o1 (stereo not drawn)	-10%	-4%
CC(=O)C1C(N2CC2)CC2C3CCC4=CC(=O)CCC4(C)C3CCC21C (stereo not drawn)	-17%	?

Exported with values under each structure: entries from further up.
Screens in order – VACV mCherry inh | Vaccinia Venus
> CCOc1ccc(NC(=O)c2cc3sc(Cl)cc3n2CC)cc1
 : -28% | ?
> CN(C)CC#CCOC(c1ccccc1)c1ccccc1
 : i | -9%
> CN(C(=S)Nc1ccc(Oc2ccccc2)cc1)C1CCCCC1
 : -12% | -19%
> Cc1ccc(SCC(=O)NC2CCS(=O)(=O)C2)cc1 (stereo not drawn)
 : i | -2%
> COC(=O)CSC1=C(C#N)C(c2ccc(Cl)cc2)C(C(=O)OC)C(=O)N1 (stereo not drawn)
 : i | -22%
> C=CCN(C(=O)Nc1ccc2oc(C)nc2c1)c1ccccc1
 : -10% | -12%
> Cc1ccc2c(=O)n3c(nc2c1)C(Cc1ccccc1)NC(=O)c1cccnc1-3 (stereo not drawn)
 : -13% | -9%
> COc1ccc(N2CCN(Cc3cc(=O)oc4ccc(C)cc34)CC2)cc1
 : -12% | -8%
> Cc1ccc(S(=O)(=O)c2nc(-c3ccccc3Cl)oc2N2CCN(C)CC2)cc1
 : -23% | -21%
> CCC1CC(C(=O)Nc2ccccc2)C(=O)O1 (stereo not drawn)
 : 0% | 8%
> CCOc1ccc(N2CC(C(=O)Nc3ccccc3C(=O)N3CCOCC3)CC2=O)cc1 (stereo not drawn)
 : -2% | -7%
> O=C(NCC1CCCO1)C1CCN(C2CCN(C(=O)C3CCCCC3)CC2)CC1 (stereo not drawn)
 : -5% | -1%
> O=C(CSc1nc2ccccc2o1)NC1CCCC1
 : -7% | 0%
> COc1cc(C(O)CO)ccc1O (stereo not drawn)
 : -12% | -14%
> Cn1c(=O)c2c(nc(SCc3cccnc3)n2Cc2ccc(F)cc2)n(C)c1=O
 : i | -13%
> CCn1nc(C)c(Br)c1-c1nc(CS(=O)(=O)c2ccc(F)cc2)no1
 : i | -7%
> COc1ccc(-c2nc3cc(NC(=O)COc4ccccc4C)ccc3o2)cc1
 : 1% | -7%
> Cc1cccc(OCCSc2nc3ccc(NC(=O)COc4ccccc4F)cc3s2)c1
 : -28% | -19%
> O=C(OCC(=O)N1CCc2ccccc21)c1c2c(nc3ccccc13)CCCCC2
 : -4% | -7%
> O=C(c1cccc(Cl)c1)N1CCC(=O)N(C(COCc2cccc(Cl)c2)Cc2ccccc2)CC1 (stereo not drawn)
 : 0% | -28%
> Cc1ccc(S(=O)(=O)NCC(C)n2cncn2)cc1 (stereo not drawn)
 : -15% | -6%
> Cn1c(N)c(S(=O)(=O)c2ccc(Br)cc2)c2nc3ccccc3nc21
 : -5% | ?
> COc1ccc(C(=O)NC(=S)Nc2ccc(N3CCCC3)cc2)cc1OC
 : -18% | -10%
